Screens (PubChem BioAssay)
miR-21 FLuc: miR-21 reporter, rising signal | HeLa miR-21 FLuc reporter, luciferase, 48 h | Potency, µM (series often up to 38.3 µM), inactives show at the top dose reporter change, positive = more light | AID 2288 | 340,000 tested, under 10 active; active = well fitted rising curve with a large enough effect; inconclusive = small, poorly fitted or top-dose-only effect; inactive = no such curve, though single readings can be large or run the other way;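 note: % of control where 0% means no effect; miR-21 action dims this reporter so a rising signal means less miR-21 action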
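HeLa miR-21-FLuc reporter line, endogenous miR-21; 2000 cells/well in DMEM/10% FBS; compound titration up to ~40uM final, 48 h, 37 degree Celsius; luciferase detection reagent, 15 min lysis, CCD luminescence.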
GLA inh pH 4.5: blocks human alpha-galactosidase A at pH 4.5; activity change, negative = inhibition, % at 105 µM; 230,000 tested, under 10 active; P06280; purified enzyme, 4-MU-alpha-Gal fluorescence, pH 4.5; inconclusive = small, poorly fitted or top-dose-only inhibition, or a rising curve; inactive = flat fitted curve, though single readings scatter; no compound was filed as active;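 note: 0% = full activity with enzyme and -100% = basal without enzyme; dose as in the result columns while the protocol names 77 µM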
Rango dissoc inh: inhibition of RanGTP-driven Rango-importin beta dissociation; O95149+P62826; Biochemical FRET Rango-importin beta, RanGTP-induced dissociation; Potency, µM (series often up to 46.1 µM), for the others: at the top dose activity change, negative = inhibition; 340,000 tested, 0.071% active; AID 540253; active means falling FRET ratio curve, often poorly fitted, with flat reads before Ran was added; inconclusive means other falling curves, or compound fluorescence or quenching; inactive means flat or rising ratio curve;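 note: potency is the fitted concentration of half-maximal effect; % of control where 0% means no effect; nearly all actives have a fitted effect of over 45% in size; -100% = wells without RanGTP and RCC1; the record marks most hits as doubtful in a second field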
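Rango/importin beta premix (0.1/0.25 uM final), PBS + 1 mM DTT + 0.02% Tween-20 + 0.1% BSA; cpd 5 min RT; FRET pre-read; + RanGTP-RCC1 (0.6 uM Ran, 2 mM GTP, 0.2 uM RCC1); 45 min RT; FRET post-read, ex 430, em 486/530 nm.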
Rango complex inh: inhibitors of Rango-importin beta complex formation | Q14974 | Rango CFP/YFP FRET sensor + importin beta, 45 min | Potency, µM (top dose mostly 92.2 µM), for inactives: top-dose inhibition of complex formation | 340,000 tested, 0.031% active | AID 540263; active = rising FRET ratio curve, often small or poorly fitted; inconclusive = mostly compound fluorescence or quenching in the first reads; inactive = flat curves in all reads;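 note: potency is the fitted concentration of half-maximal effect; 0% = DMSO wells and 100% = buffer wells lacking importin beta; nearly all actives have a fitted effect of over 15% in size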
Target sequence (Q14974 whole entry, looked up): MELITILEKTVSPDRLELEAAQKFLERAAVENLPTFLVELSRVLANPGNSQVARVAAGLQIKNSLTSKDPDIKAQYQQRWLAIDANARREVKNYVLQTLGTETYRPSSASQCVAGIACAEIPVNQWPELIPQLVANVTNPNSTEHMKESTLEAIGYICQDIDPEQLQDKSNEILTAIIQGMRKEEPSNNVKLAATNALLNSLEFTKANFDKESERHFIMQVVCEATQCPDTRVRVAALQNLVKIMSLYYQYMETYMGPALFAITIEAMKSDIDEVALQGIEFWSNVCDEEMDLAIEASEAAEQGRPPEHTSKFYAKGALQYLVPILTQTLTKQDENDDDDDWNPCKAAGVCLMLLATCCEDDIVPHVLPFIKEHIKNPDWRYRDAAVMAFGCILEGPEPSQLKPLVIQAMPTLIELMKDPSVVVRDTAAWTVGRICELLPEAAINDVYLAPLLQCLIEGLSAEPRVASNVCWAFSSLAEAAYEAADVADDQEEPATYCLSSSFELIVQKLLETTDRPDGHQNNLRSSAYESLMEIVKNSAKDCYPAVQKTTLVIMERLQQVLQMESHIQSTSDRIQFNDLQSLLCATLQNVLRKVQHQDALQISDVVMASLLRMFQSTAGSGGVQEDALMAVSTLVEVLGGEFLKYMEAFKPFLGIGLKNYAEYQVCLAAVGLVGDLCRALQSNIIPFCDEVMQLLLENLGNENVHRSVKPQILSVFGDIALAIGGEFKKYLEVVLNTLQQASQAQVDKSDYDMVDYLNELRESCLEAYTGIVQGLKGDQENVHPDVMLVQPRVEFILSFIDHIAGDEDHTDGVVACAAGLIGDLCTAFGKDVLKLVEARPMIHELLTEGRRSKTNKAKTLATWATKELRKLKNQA
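FRET biosensor Rango (snurportin 1 IBB between N-terminal EYFP and C-terminal Cerulean), 50 nM in PBS/1 mM DTT/0.02% Tween-20/0.1% BSA, preincubated 5 min RT with compound; 0.125 microM importin beta added, 45 min RT, CFP/YFP FRET ratio read.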
An asterisk follows results filed as active; ? = inconclusive; . = no result given; & = joins results of further samples. These rows are one share of the data; rates above refer to the full screens.

Structure	miR-21 FLuc	GLA inh pH 4.5	Rango dissoc inh	Rango complex inh
CCn1c(=O)c([N+](=O)[O-])c(NCCN(C)C)c2ccccc21	7.4%	-2.6	6.5%	0.4%
CC1CCCN(CCCNC(=O)C2CC(=O)N(CCc3ccccc3)C2)C1 (stereo not drawn)	-1.1%	.	0.0%	2.1%
C=CCNC(=O)C(C)Sc1ccc(Cl)cc1 (stereo not drawn)	-6.6%	7.5	0.2%	0.7%
O=S(=O)(c1cccc2cccc(Cl)c12)N1CCCC1	-16.3%	11.6	-10.3%	0.6%
CCn1ccnc1CNC(=O)CC1C(=O)NCCN1CCCc1ccccc1 (stereo not drawn)	-0.6%	.	1.9%	-2.4%
CC(=O)Cc1nsc(NC(=O)c2ccc(COc3ccc(C)cc3)o2)n1	-7.6%	-1.5	-0.9%	0.3%
Cc1ccc(CNS(=O)(=O)c2cc(F)ccc2CN2C(=O)c3cccnc3C2=O)o1	-0.2%	.	-10.6%	-1.9%
COc1ccccc1C(C)NCC(=O)Nc1ccccc1C(F)(F)F (stereo not drawn)	-10.4%	6.4	0.7%	-5.4%
COc1ccccc1CN1Cc2cccc3c2[C@@H](CC1=O)[C@H](O)[C@H](O)C3	.	.	-8.5%	-1.1%
CCOc1ccc(OCC)c(NC(=O)CSc2nc3ccccc3c(=O)n2C)c1	0.6%	-0.8	-13.8%	-3.3%
CCCC1=[N+](CC(=O)c2ccc(Br)cc2)CCn2cccc21	2.9%	-4.9	-3.3%	?
Cc1cc(C(=O)NC2CCCc3c2cnn3-c2cccc(C)c2C)n(C)n1 (stereo not drawn)	22.7%	.	-1.6%	0.6%
O=C(CSc1nnc(-c2ccco2)n1CC1CCCO1)c1ccccc1 (stereo not drawn)	-4.7%	2.2	1.3%	0.0%
Cc1ccccc1CN1CCN(C(=O)c2cccc(F)c2)CC1	-0.5%	-5.2	18.9%	1.3%
O=S(=O)(N/N=C1/CC(c2ccccc2)Oc2ccccc21)c1ccccc1 (stereo not drawn)	.	.	4.4%	-0.6%
O=C1c2ccccc2C(=O)N1c1ccccc1S(=O)C(F)(F)F (stereo not drawn)	3.6%	5.0	?	?
C[C@]12C(=O)N(c3ccc(Br)cc3)C(=O)N1[C@@H]1c3ccccc3OC[C@@H]1[C@H]2c1ccccc1	1.7%	.	-1.5%	-3.9%
CN(C)C(=O)CSc1nc2ccccc2c(=O)[nH]1	-1.6%	5.0	-10.5%	-5.0%
O=C(Nc1cccnc1)C1(F)C(F)(F)C(F)(F)C(F)(F)C(F)(F)C1(F)F	-1.1%	-18.4	14.9%	-2.6%
CCn1c(C)nc2cc(C(=O)N/N=C/c3cccc(OC)c3O)ccc21	-2.2%	-2.8	-9.3%	-3.8%
O=C(COC(=O)c1cc(=O)[nH]c2ccccc12)NCc1cccs1	-2.5%	-3.8	0.4%	-0.8%
CC(OC(=O)[C@@H](NC(=O)OCc1ccccc1)C(C)C)C(=O)Nc1ccc(N2CCOCC2)cc1 (stereo partly drawn)	.	.	-6.6%	0.9%
Cc1cc(-n2ccc(=O)[nH]c2=O)nc(-c2ccccc2)n1	-22.8%	-2.5	-1.5%	0.3%
O=C(CN1C(=O)S/C(=C\c2cccc(Cl)c2)C1=O)NCCCn1ccnc1	-3.2%	.	-5.9%	3.0%

Of the compounds above, four contain an aryl thioether with sulfur outside any ring:
Structure	miR-21 FLuc	GLA inh pH 4.5	Rango dissoc inh	Rango complex inh
C=CCNC(=O)C(C)Sc1ccc(Cl)cc1 (stereo not drawn)	-6.6%	7.5	0.2%	0.7%
CCOc1ccc(OCC)c(NC(=O)CSc2nc3ccccc3c(=O)n2C)c1	0.6%	-0.8	-13.8%	-3.3%
O=C(CSc1nnc(-c2ccco2)n1CC1CCCO1)c1ccccc1 (stereo not drawn)	-4.7%	2.2	1.3%	0.0%
CN(C)C(=O)CSc1nc2ccccc2c(=O)[nH]1	-1.6%	5.0	-10.5%	-5.0%

Further results
Structure	miR-21 FLuc	GLA inh pH 4.5	Rango dissoc inh	Rango complex inh
CC(C)(C)n1nnnc1C(c1ccccc1)N1CCc2ccccc2C1 (stereo not drawn)	-1.7%	3.8	-10.6%	-3.5%
COc1cccc(C(=O)N2CCC(n3nccc3NC(=O)CCOc3ccccc3)CC2)c1	-6.8%	.	?	?
O=C(CCC(=O)Nc1ccc(F)cc1)N/N=C/c1ccc(F)cc1	-7.6%	.	3.7%	-3.6%
O=C(CC1C(=O)NCCN1C/C=C/c1ccccc1)NCCc1cnccn1 (stereo not drawn)	-0.2%	.	-14.8%	0.4%
CCN1/C(=C/c2ccc3cccc(C)c3[n+]2CC)Sc2ccccc21	-8.5%	4.3	5.5%	51.7µM*
O=C(CC1C=Cc2ccccc2N1C(=O)c1ccccc1)c1ccccc1 (stereo not drawn)	26.1%	-3.9	-9.8%	2.1%
COc1ccc(NC(=O)CSc2nncs2)cc1OC	-2.8%	6.4	3.0%	0.0%
COc1cccc(/C=C2/CN(C)CC3=C2OC(N)=C(C#N)C3c2cccc(OC)c2)c1 (stereo not drawn)	-0.9%	-14.9	20.6µM*	?
COc1ccc(OCC(O)Cn2c(=N)n(CCN3CCCCC3)c3ccccc32)cc1 (stereo not drawn)	-1.8%	0.3	-6.0%	0.2%
Cc1ccc(S(=O)(=O)N2CCCC2C(=O)O)cc1 (stereo not drawn)	-0.2%	12.0	-0.9%	1.1%
O=c1c(-c2ccccc2)coc2c(CN3CCCC3)c(O)ccc12	-8.0%	1.2	1.7%	0.1%
CCOC(=O)c1cnc2ccc(OCC)cc2c1NCc1cccnc1	-5.8%	-7.8	?	0.1%
O=C(c1ccc2ccccc2n1)N1CCN(Cc2c(F)cccc2Cl)CC1	-3.8%	.	-11.3%	1.0%
Cc1cccc(NC(=O)c2cccc(C(=O)Nc3cccc(C)c3)n2)c1	.	.	-5.7%	-0.1%
CCCOC(=O)c1c(NC(=O)CSc2nc(-c3ccco3)cc(C(F)(F)F)n2)sc(C(=O)OC)c1C	2.2%	3.6	0.6%	-2.1%
COc1ccc(-c2cc(=O)c3ccccc3[nH]2)cc1	-23.4%	-5.3&-1.3	-0.3%	-6.5%
O=C(Cc1ccc(F)cc1)Nc1ccc(F)c([N+](=O)[O-])c1	-3.1%	-5.8	13.1%	0.0%
CCN(CC)S(=O)(=O)c1ccc(C(=O)NCc2ccc3c(c2)OCO3)cc1	-3.0%	-7.2	-2.1%	-6.1%
CC1CCCCN1CCNC(=O)C1CC(=O)N(c2ccc(F)c(Cl)c2)C1 (stereo not drawn)	-6.5%	-4.6	22.6%	5.6%
Cc1ccc(-c2csc(=S)[nH]2)cc1	-44.0%	-1.4	?	0.2%
CN(C(=O)c1ccc(N2CCCCC2)c([N+](=O)[O-])c1)C1CCS(=O)(=O)C1 (stereo not drawn)	.	.	-3.4%	-3.6%
COc1cc2c(cc1NC(=O)CSCC(=O)O)oc1ccccc12	18.7%	4.7	1.0%	0.7%
CC(C)(C)NC(=O)Cc1ccc(Cl)c(Cl)c1	-8.6%	3.7	-0.1%	0.5%
Cc1cccc(CN2CCC(C(N)=O)CC2)c1	-1.1%	12.5	-4.9%	1.3%
O=C(N/N=C\c1ccc2c(c1)OCO2)c1ccc(Cn2cc(Br)c([N+](=O)[O-])n2)o1	-10.2%	-8.0	5.0%	0.1%
COc1ccc(S(=O)(=O)Nc2cccc3c2O[C@H](CN(C)Cc2ccccc2)[C@@H](C)CN([C@H](C)CO)C3=O)cc1	.	.	1.2%	-0.3%
CC(=O)Nc1ccc(S(=O)(=O)N[C@@H](C)C(=O)N(C)Cc2cccs2)cc1	.	.	-6.6%	-0.2%
Cc1ccc(Nc2nnns2)cc1	-0.5%	-0.1	4.7%	-0.1%
O=C(Nc1ccccc1)C1=C[C@H](c2csc3ccccc23)C[C@H](OCc2ccc(CO)cc2)O1	8.2%	?	-10.2%	-0.5%
COc1ccc(NC(=O)C23CCC(C2)C(C)(C)C3=O)cc1 (stereo not drawn)	-4.7%	-1.8	-9.5%	?
O=C(O)c1ccc(N/N=C/c2ccc(OC(=O)c3cccc(Cl)c3)cc2)cc1	-6.5%	-19.2	5.1%	1.6%
COc1ccc(C(=O)Nc2ccc(S(=O)(=O)N3CCN(C)CC3)cc2)cc1	.	.	19.8%	2.4%
Cc1nn(-c2ccccc2)c(C)c1-c1cc(C(=O)N/N=C/c2cccnc2)[nH]n1	0.5%	1.3	.	.
CCCCCn1nc(C(=O)N(CC(C)C)c2c(N)n(CCCC)c(=O)[nH]c2=O)c2ccccc2c1=O	.	.	-1.0%	?
Cc1ccc(CNC(=O)C2CC(c3ccccc3C(F)(F)F)=NO2)o1 (stereo not drawn)	.	.	18.9%	-2.9%
O=c1ncn(-c2cccc([N+](=O)[O-])c2)c2ccccc12	.	.	45.1%	2.5%
Nc1nonc1-n1nnc(C(=O)N/N=C/c2ccc(O)cc2)c1CN1CCCCCC1	.	.	-7.3%	6.0%
Cc1cc(OCc2cc(C(=O)N(C)CCCN3CCOCC3)no2)cc(C)c1Cl	-4.2%	.	14.4%	2.7%
COc1ccc2c(c1)[nH]c1c(=O)n(/N=C/c3ccc(OC)c(CN4CCCCC4)c3)cnc12	0.6%	1.3	-0.6%	-0.7%
Cc1ccc(CC(=O)NCc2ccc3c(c2)OCO3)cc1	-35.4%	8.7	0.2%	2.4%
CC(=O)c1sc(-c2ccccc2)cc1NS(=O)(=O)c1ccccc1	-7.2%	0.4	-6.4%	-5.3%
CCc1ccc(CNC(=O)CCC(=O)n2ncc3cc(C)ccc32)cc1	0.1%	.	-18.9%	0.1%
CC(=O)Nc1ccc(Oc2cnccn2)cc1	-1.4%	-1.6	6.8%	-3.4%
C=CCSc1nnc2c(n1)OC(c1c(C)[nH]n(-c3ccccc3)c1=O)Nc1ccccc1-2 (stereo not drawn)	-33.5%	1.8	0.2%	-0.2%
O=C1CNC(=S)N1CCCc1ccccc1	0.2%	.	-0.5%	-2.0%
CCOc1ccccc1N1C(=O)CC(N(O)c2ccccc2)C1=O (stereo not drawn)	-2.3%	-2.2	-9.1%	-4.2%
CCCCCC1CCC(C(=O)NCCN2CCOCC2)CC1 (stereo not drawn)	-4.0%	.	-4.7%	1.4%
Nc1c2c(=O)oc(-c3ccccc3)cc2nn1-c1ccccc1	-30.0%	0.6	19.0%	?
COc1ccc(-c2ccnc3nc(N4CCN(c5ccccc5)CC4)nn23)cc1	-8.4%	-12.9	-13.2%	-8.9%
COc1cc(C2NC(=S)NC(C)=C2C(=O)c2ccccc2)ccc1O (stereo not drawn)	-14.4%	-26.8	5.2%	-1.9%
Cc1ccc(CN2CCN(C3CCCC3)C(CCO)C2)s1 (stereo not drawn)	0.0%	4.8	9.4%	3.6%
CN1C(=O)C(=O)/C(=C(/O)c2ccc(Br)cc2)C1c1cccc([N+](=O)[O-])c1 (stereo not drawn)	-0.7%	.	-8.8%	0.9%
O=[N+]([O-])c1cccc(C2=NCCS2)c1	0.7%	-0.8	1.1%	-1.5%
CN(C)C(=O)N1CCNCC1	-0.3%	-2.9	4.9%	1.8%
Cc1nc2nc3c(cn2n1)C(=O)CC(c1ccccc1)C3 (stereo not drawn)	-4.8%	-5.3	?	?
CCOc1ccc(CN2CCNC(=O)C2CC(=O)NCc2csc(C(C)C)n2)cc1 (stereo not drawn)	-2.4%	.	-7.3%	?
CSc1ccccc1OCc1cc(C(=O)NCCN2CCCc3ccccc32)no1	-1.3%	.	15.4%	0.5%
Cc1ccc(Oc2nc3ccccn3c(=O)c2/C=C(\C#N)C(=O)Nc2c(C)n(C)n(-c3ccccc3)c2=O)c(C)c1	-4.0%	-8.8	10.0%	-0.2%
